Screening results deposited in PubChem BioAssay by Broad Institute.
Vaccinia stage: Vaccinia orthopox stage-specific inhibition; activity change (mCherry), % (no concentration beside the values); Vaccinia-infected cells, mCherry/Venus stage reporter fluorescence; stronger effect = lower value; some inactives read as strong as hits; hit rate 0.01% among 89,000;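 active means mCherry past -33% and 40 or more points under the early reporter, replicates agreeing; inconclusive means past -33% without that gap or agreement; tested in A549 cells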;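 further: scaled between vehicle wells and reference inhibitor wells; 23 nL library stock went into each well; one replicate is shown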
Vaccinia stage Venus: further read-out of Vaccinia stage, marked with its call; activity change (Venus), %; measured here: Venus reporter, other viral stage;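 negative = less Venus signal; first of two replicates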
An asterisk follows results filed as active; ? = inconclusive; nt = no result given.

The first three records (preview)
SMILES	Vaccinia stage	Vaccinia stage Venus
O=C(C[C@@H]1CC[C@H]2[C@@H](COC[C@@H](O)CN2Cc2ccc(C(F)(F)F)cc2)O1)N1CCc2ccccc2C1	7.9	4.6
O=C(NCC[C@@H]1CC[C@@H](NS(=O)(=O)c2ccc(Cl)cc2)[C@@H](CO)O1)c1ccc2c(c1)OCO2	-4.1	-0.4
C/C=C/c1ccc([C@@H]2[C@@H](CO)N3C(=O)CN(C(=O)c4cnccn4)C[C@H]23)cc1	-1.6	-0.5

All compounds of this part, repeating the preview:
SMILES	Vaccinia stage	Vaccinia stage Venus
O=C(C[C@@H]1CC[C@H]2[C@@H](COC[C@@H](O)CN2Cc2ccc(C(F)(F)F)cc2)O1)N1CCc2ccccc2C1	7.9	4.6
O=C(NCC[C@@H]1CC[C@@H](NS(=O)(=O)c2ccc(Cl)cc2)[C@@H](CO)O1)c1ccc2c(c1)OCO2	-4.1	-0.4
C/C=C/c1ccc([C@@H]2[C@@H](CO)N3C(=O)CN(C(=O)c4cnccn4)C[C@H]23)cc1	-1.6	-0.5
CN1C(=O)c2cc(NS(C)(=O)=O)ccc2OC[C@@H]2O[C@@H](CC(=O)N3CCOCC3)CC[C@@H]21	5.8	6.0
C[C@@H]1CN([C@H](C)CO)C(=O)c2cc(-c3cccnc3)cnc2O[C@H]1CN(C)Cc1ccc(-c2ccccc2)cc1	?	nt
O=C(C[C@H]1C=C[C@H](NS(=O)(=O)c2cccc(F)c2)[C@@H](CO)O1)NCc1ccc2c(c1)OCO2	4.1	-3.1
O=C(C[C@H]1C[C@H]2c3cc(NC(=O)c4ccc5c(c4)OCO5)ccc3O[C@H]2[C@H](CO)O1)NCC(F)(F)F	-7.4	-2.6
COc1ccc(S(=O)(=O)N[C@@H]2CC[C@H](CC(=O)O)O[C@H]2CO)cc1	-4.7	-2.1
COc1ccccc1C#Cc1ccc([C@@H]2[C@@H](CO)N3CCCCN(CCC(F)(F)F)C[C@H]23)cc1	?	nt
COc1ccc(S(=O)(=O)N(C)C[C@@H]2Oc3ccc(NS(C)(=O)=O)cc3C(=O)N([C@@H](C)CO)C[C@H]2C)cc1	10.5	8.8
CC(C)NC(=O)N(C)C[C@@H]1Oc2c(NC(=O)Nc3ccc(F)cc3)cccc2C(=O)N([C@@H](C)CO)C[C@@H]1C	-6.6	-2.5
COc1ccc2c3c(n(C)c2c1)[C@H](CO)N(C(=O)C1CCCC1)CC31CN(C(=O)Nc2cccc(F)c2)C1	?	nt
O=C(C[C@@H]1CC[C@H](NC(=O)CN2CCOCC2)[C@H](CO)O1)NC1CCCCC1	-0.8	-9.5
CCS(=O)(=O)Nc1ccc2c(c1)C(=O)N(C)C[C@@H](OC)[C@H](C)CN[C@H](C)CO2	1.7	-0.8
CN1C(=O)c2cc(NC(=O)C3CCOCC3)ccc2OC[C@@H]2O[C@@H](CC(=O)NCc3ccccc3F)CC[C@H]21	13.1	5.1
C[C@@H]1CCCCO[C@H](CN(C)Cc2ccncc2)[C@H](C)CN([C@H](C)CO)C(=O)c2cc(NC(=O)c3ccccc3)ccc2O1	-12.3	0.6
COc1ccc(S(=O)(=O)Nc2ccc3c(c2)CC(=O)N([C@@H](C)CO)C[C@H](C)[C@H](CN(C)C(=O)Nc2ccc(C(F)(F)F)cc2)O3)cc1	2.5	6.7
Cc1noc(C)c1S(=O)(=O)Nc1ccc2c(c1)C(=O)N([C@@H](C)CO)C[C@@H](C)[C@H](CN(C)C(=O)NC1CCCCC1)O2	9.1	9.1
C[C@H](CO)N1C[C@H](C)[C@H](CN(C)C(=O)c2cccc(F)c2)Oc2cc(C#CC3CC3)ccc2S1(=O)=O	-28.5	-33.9
COc1ccc(CN2C[C@H](C)[C@H](OC)CN(C)C(=O)c3cc(NC(=O)c4nc5ccccc5s4)ccc3OC[C@@H]2C)cc1	-6.1	-4.4
Cc1noc(C)c1NC(=O)Nc1cccc2c1O[C@@H](CN(C)CC1CC1)[C@H](C)CN([C@H](C)CO)C2=O	9.1	16.0
Cc1cccc(-c2ccc([C@H]3[C@H]4CN(S(=O)(=O)c5cn(C)cn5)CCCCN4[C@H]3CO)cc2)c1	?	nt
O=C(NCC[C@H]1CC[C@@H](NC(=O)c2ccccc2F)[C@H](CO)O1)c1ccc2c(c1)OCO2	-21.8	-12.8
C[C@@H]1CN([C@H](C)CO)C(=O)c2cc(NS(=O)(=O)c3ccc(F)cc3)ccc2O[C@H]1CN(C)Cc1ccccc1	7.2	3.5
C[C@H]1CN([C@@H](C)CO)C(=O)Cc2cc(NC(=O)C3CC3)ccc2O[C@H]1CN(C)Cc1ccc(C(=O)O)cc1	10.8	12.6
O=S(=O)(c1ccc(F)cc1)N1CCCCN2[C@@H](CO)[C@H](c3ccc(-c4ccccc4)cc3)[C@@H]2C1	?	nt
C[C@@H]1CN([C@H](C)CO)C(=O)c2ccccc2-c2ccccc2CO[C@H]1CN(C)C(=O)NC1CCCCC1	12.3	3.2
C[C@H]1CN([C@@H](C)CO)C(=O)c2cc(-c3cccc(F)c3)cnc2O[C@@H]1CN(C)Cc1ccccn1	0.7	0.2
C=CCNC(=O)[C@@H]1[C@H]2C(=O)O[C@H](c3ccccc3)[C@H](c3ccccc3)N2[C@H](c2ccccc2OCCO)[C@@]12C(=O)N(C(=O)OCCOC)c1ccc(C#CCC(C(=O)OC)C(=O)OC)cc12	15.9	7.0
O=C(Nc1cc(F)ccc1F)N[C@H]1CC[C@@H](CCn2cc(C3CCCC3)nn2)O[C@@H]1CO	-17.4	-12.2
C[C@H](CO)N1C[C@H](C)[C@H](CN(C)C(=O)Cc2ccccc2)OCCCC[C@H](C)Oc2ccc(NS(=O)(=O)c3ccc(Cl)cc3)cc2C1=O	-1.4	-3.0
C[C@H](CO)N1C[C@H](C)[C@H](CN(C)Cc2ccncc2)Oc2ncc(C#CC3CCCCC3)cc2C1=O	-3.9	-14.6
O=c1n(-c2ccccc2)c(=O)n2n1CC(COc1ccccc1)=C1[C@@H](c3ccccc3)OB(O)C[C@@H]12	-29.4	-27.9
C[C@H](CO)N1C[C@H](C)[C@@H](CN(C)C)Oc2cc(C#CC(C)(C)O)ccc2S1(=O)=O	-7.1	-2.1
CCC(=O)Nc1ccc2c(c1)OC[C@H](C)N(Cc1cccc(F)c1)C[C@H](C)[C@@H](OC)CN(C)C2=O	-13.6	4.6
C[C@H](CO)N1C[C@H](C)[C@@H](CN(C)S(=O)(=O)c2cccs2)Oc2c(NS(=O)(=O)c3ccc(F)cc3)cccc2C1=O	2.4	13.3
C[C@@H]1CN([C@@H](C)CO)C(=O)c2cc(NC(=O)Cc3ccccc3)ccc2O[C@@H]1CN(C)C(=O)Nc1ccc(F)cc1	9.4	9.0
CC(=O)N1[C@H](CO)[C@@H](c2ccccc2)[C@@H]1CN(CC1CCC1)C(=O)CN(C)C	9.4	14.8
CC(C)C#Cc1ccc([C@H]2[C@@H](C#N)N(C(=O)C3CCC3)[C@H]2CO)cc1	-34.1	-27.1
CCCNC(=O)N(C)C[C@H]1Oc2ncc(-c3cccc(C#N)c3)cc2C(=O)N([C@@H](C)CO)C[C@H]1C	2.5	3.6
CCC(=O)N(C)C[C@@H]1Oc2ncc(C#C[C@H](C)O)cc2C(=O)N([C@H](C)CO)C[C@@H]1C	12.9	16.1
CC=Cc1ccc2n(c1=O)C[C@H]1[C@H](CO)[C@@H](C(=O)NCC3CC3)[C@@H]2N1C(=O)CC (mixture of isomers)	8.8	5.9
C[C@H](CO)N1C[C@H](C)[C@@H](CN(C)Cc2ccc(C(F)(F)F)cc2)Oc2c(NC(=O)C3CC3)cccc2C1=O	-8.6	1.5
C[C@H](CO)N1C[C@H](C)[C@H](CN(C)C(=O)C2CC2)Oc2ncc(-c3ccc(C(=O)N(C)C)cc3)cc2C1=O	10.2	3.0
C[C@H]1CN([C@@H](C)CO)C(=O)c2cc(NC(=O)Cn3cnnn3)ccc2O[C@@H]1CN(C)Cc1ccc2c(c1)OCO2	12.3	9.0

Record cards (already shown). Values in the order: Vaccinia stage, Vaccinia stage Venus
C[C@H]1CN([C@@H](C)CO)C(=O)c2cc(NC(=O)Cn3cnnn3)ccc2O[C@@H]1CN(C)Cc1ccc2c(c1)OCO2 across the screens: 12.3, 9.0
C[C@H](CO)N1C[C@H](C)[C@@H](CN(C)S(=O)(=O)c2cccs2)Oc2c(NS(=O)(=O)c3ccc(F)cc3)cccc2C1=O across the screens: 2.4, 13.3
C[C@H](CO)N1C[C@H](C)[C@@H](CN(C)Cc2ccc(C(F)(F)F)cc2)Oc2c(NC(=O)C3CC3)cccc2C1=O across the screens: -8.6, 1.5

(further entries)
SMILES	Vaccinia stage	Vaccinia stage Venus
O=C(C[C@H]1CC[C@@H](NS(=O)(=O)c2ccc(F)cc2)[C@H](CO)O1)NCc1ccccc1F	-2.6	2.4
C[C@H]1CN([C@@H](C)CO)C(=O)Cc2cc(NS(=O)(=O)c3ccccc3)ccc2O[C@@H]1CN(C)S(=O)(=O)c1ccccc1	7.0	-0.4
C[C@@H]1CN([C@H](C)CO)C(=O)CCCn2nncc2CO[C@H]1CN(C)Cc1cccc(C(=O)O)c1	12.2	7.6
C[C@H]1CN([C@@H](C)CO)C(=O)c2cc(C#CCN(C)C)cnc2O[C@H]1CN(C)S(C)(=O)=O	29.4	18.9
C[C@@H]1CN([C@@H](C)CO)C(=O)c2cc(C3=CCCCC3)cnc2O[C@@H]1CN(C)C(=O)c1ccccc1	2.1	-4.0
CCC(=O)Nc1ccc2c(c1)C(=O)N(C)[C@@H]1CC[C@@H](CC(=O)NCC3CCCCC3)O[C@H]1CO2	0.6	-0.6
CNC[C@@H]1OCCCC[C@H](C)Oc2ccc(NC(=O)NC(C)C)cc2C(=O)N([C@@H](C)CO)C[C@@H]1C	8.8	4.7
C[C@H]1CN([C@@H](C)CO)C(=O)c2cc(NC(=O)Nc3ccc(C(F)(F)F)cc3)ccc2O[C@@H]1CN(C)C(=O)NC1CCCCC1	11.5	4.8
COc1ccc(NC(=O)N[C@@H]2CC[C@H](CCNC(=O)Cc3ccncc3)O[C@H]2CO)cc1	0.0	-2.6
CC(C)NC(=O)N(C)C[C@@H]1Oc2ccc(NC(=O)CCCCCC(=O)Nc3ccccc3N)cc2CC(=O)N([C@@H](C)CO)C[C@H]1C	6.5	4.2
C[C@@H]1CN([C@@H](C)CO)C(=O)Cc2cc(NC(=O)C3CCCCC3)ccc2O[C@@H]1CN(C)Cc1ccc(Cl)c(Cl)c1	?	nt
COc1ccc(S(=O)(=O)Nc2cccc3c2O[C@@H](CN(C)C(=O)Nc2ccc(F)cc2)[C@H](C)CN([C@H](C)CO)C3=O)cc1	9.6	6.6
Fc1cccc(-c2ccc([C@@H]3[C@@H]4CN(Cc5nccs5)C[C@H]3N4)cc2)c1	?	nt
CN1C(=O)c2cc(NC(=O)Nc3ccc(Cl)cc3)ccc2OC[C@H]2O[C@H](CC(=O)NCCN3CCCCC3)CC[C@@H]21	-7.3	8.4
CN(C)CC(=O)Nc1ccc2c(c1)[C@@H]1C[C@@H](CC(=O)NCc3ccc4c(c3)OCO4)O[C@@H](CO)[C@@H]1O2	5.3	1.1
CC(C)NC(=O)N(C)C[C@H]1Oc2ccc(NS(=O)(=O)c3cccs3)cc2CC(=O)N([C@H](C)CO)C[C@@H]1C	5.5	9.0
CS(=O)(=O)Nc1ccc2c(c1)[C@@H]1C[C@@H](CC(=O)NCC3CC3)O[C@H](CO)[C@@H]1O2	-3.3	-4.0
C[C@@H]1CN([C@H](C)CO)C(=O)c2cc(NC(=O)Cn3cnnn3)ccc2O[C@H]1CN(C)C(=O)Nc1ccc(F)cc1	20.0	7.3
CCCNC(=O)[C@H]1[C@H](CO)[C@H]2Cn3c(ccc(-c4cccnc4)c3=O)[C@H]2N1CCC	0.4	3.5
C[C@@H]1CN([C@@H](C)CO)C(=O)c2cc(NC(=O)NC3CCCCC3)ccc2O[C@@H](C)CCCCO[C@H]1CN(C)C(=O)CCCN(C)C	14.9	1.9
C[C@H](CO)N1C[C@H](C)[C@H](CN(C)S(=O)(=O)c2cccs2)OCCCC[C@H](C)Oc2ccc(NC(=O)c3ccncc3)cc2C1=O	2.7	-3.5
Cc1ccccc1-c1ccccc1[C@H]1[C@@H](CO)N(C(=O)c2ccccc2)[C@H]1C#N	-17.8	-21.5
COCC(=O)N1[C@H](C#N)[C@H](c2ccc(C3=CCCCC3)cc2)[C@@H]1CO	-18.9	-13.7
C[C@@H]1CN([C@@H](C)CO)C(=O)Cc2cc(NC(=O)Nc3ccccc3)ccc2O[C@@H]1CN(C)S(=O)(=O)c1cn(C)cn1	17.5	9.7
C[C@@H]1CN([C@H](C)CO)C(=O)Cc2cc(NC(=O)Nc3ccc(C(F)(F)F)cc3)ccc2O[C@H]1CN(C)C(=O)Nc1ccccc1	-9.8	-4.9
CC(=O)N1[C@@H](CO)[C@H](c2ccccc2)C12CN(C(=O)Nc1ccccc1F)C2	6.9	5.2
C[C@H]1CN([C@@H](C)CO)C(=O)Cc2cc(NC(=O)Nc3cccc4ccccc34)ccc2O[C@H]1CN(C)C(=O)Nc1ccccc1	9.2	4.8
N#C[C@@H]1[C@@H](c2ccc(C#Cc3ccc(F)cc3)cc2)[C@H](CO)N1C(=O)C1CCCC1	-15.3	-11.5
CN(C)CC(=O)N1[C@@H](C#N)[C@@H](c2ccc(-c3ccccc3F)cc2)[C@@H]1CO	-4.8	-10.0
C[C@H](CO)N1C[C@H](C)[C@H](CN(C)S(=O)(=O)c2ccccc2F)Oc2cc(C#Cc3ccccc3)ccc2S1(=O)=O	-1.7	-1.4
C[C@H](CO)N1C[C@H](C)[C@@H](CN(C)Cc2ccc(Cl)c(Cl)c2)OCc2cnnn2CCCC1=O	?	nt
O=C(C[C@H]1CC[C@@H]2NC[C@H](O)COC[C@H]2O1)NCc1ccc2c(c1)OCO2	-1.1	-4.3
O=C(C[C@@H]1CC[C@H](NC(=O)Nc2ccc3c(c2)OCO3)[C@@H](CO)O1)NCc1ccc2c(c1)OCO2	14.2	4.4
CN(C)CC#Cc1ccc([C@@H]2[C@H](CO)N3C(=O)CN(C(=O)Cc4cccnc4)C[C@@H]23)cc1	2.1	5.7
O=C([C@@H]1[C@@H](CO)[C@@H]2Cn3c(ccc(C4=CCCCC4)c3=O)[C@H]1N2Cc1nccs1)N1CCOCC1	17.3	15.6

The list is partial; rates above refer to the full screens.
